FGF22 binding: binders of recombinant human FGF22 by thermal shift; calls only at 9.99 µM; actives 1.5% (n = 340,000); SYPRO orange fluorescence; percent of sucrose octasulfate shift, DMSO zero;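 active = melting point raised past a set limit in the mean and every replicate; three in four hits are not shown here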
Target sequence (Q9HCT0 whole entry, looked up): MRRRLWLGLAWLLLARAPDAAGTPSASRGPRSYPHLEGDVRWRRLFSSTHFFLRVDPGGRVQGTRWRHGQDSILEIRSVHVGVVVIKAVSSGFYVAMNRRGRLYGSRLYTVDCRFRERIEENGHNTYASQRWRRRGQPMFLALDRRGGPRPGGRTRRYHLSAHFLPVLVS
ALR H2O2 inh: blocks human ALR sulfhydryl oxidase activity. P55789. purified ALR, DTT oxidation, H2O2 HRP-luminol luminescence. inhibition, % (concentration not given with the values). actives 3.8% (n = 290,000). AID 485317;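 active = mean and each replicate at 75% or more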;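 also: stock transfer was 7.5 nL into about 7.5 µL; 0% = neutral wells and 100% = wells with inactivated enzyme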
HNF4A DNA FP: change in binding of human HNF4 alpha to DNA; AID 1224865; actives 0.3% (n = 360,000); P41235; activity change, % at 10 µM; HNF4a-FITC DNA binding, fluorescence polarization, 1 h; in the data active = activity change above about 30%, passing the limit was not always enough;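 also: controls were the assay level and a saturating level of protein; the project sought stronger binding though the title names inhibitors; some compounds called inactive have numbers as strong as hits; positive values seem to mean higher polarization but the record does not say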
Target sequence (P41235 whole entry, looked up): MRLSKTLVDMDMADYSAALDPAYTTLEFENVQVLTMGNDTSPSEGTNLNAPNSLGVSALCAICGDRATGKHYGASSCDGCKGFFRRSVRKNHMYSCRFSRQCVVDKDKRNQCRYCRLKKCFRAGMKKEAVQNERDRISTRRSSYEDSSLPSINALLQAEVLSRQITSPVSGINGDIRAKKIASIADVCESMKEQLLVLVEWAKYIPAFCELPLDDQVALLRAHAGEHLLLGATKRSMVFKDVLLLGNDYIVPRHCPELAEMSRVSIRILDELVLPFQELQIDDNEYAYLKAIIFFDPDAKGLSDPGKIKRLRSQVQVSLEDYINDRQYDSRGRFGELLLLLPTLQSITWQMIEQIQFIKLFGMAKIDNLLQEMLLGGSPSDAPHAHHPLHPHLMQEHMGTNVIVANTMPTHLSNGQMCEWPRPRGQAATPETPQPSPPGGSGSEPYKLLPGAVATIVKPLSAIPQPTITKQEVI
E coli growth: inhibitors of Escherichia coli growth; actives 0.21% (n = 330,000); OD600, 23 h; hits give low values; OD600 absorbance (concentration not given with the values); AID 1053175;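 active = OD600 absorbance below the run mean of sample wells minus 3.6 SD, in any replicate, cut at about 0.56 in these data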;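 also: stock transfer was 300 nL into about 60 µL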
rRNA inh HTS: inhibitors of bacterial rRNA selective over humanized ribosomes | E. coli WT GFP vs humanized-ribosome RFP mutants, fluorescence, 24 h; hits give low values; DMSO median 0, no signal -100 | GFP signal change (wild-type ribosome), % (no concentration beside the values) | actives 1.6% (n = 350,000) | AID 720706;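 active = significant combined selectivity score with lowered wild-type GFP, culture density cut under 30%, mutant RFP and density less affected; inactive = any of these conditions unmet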; also: one replicate is shown; some compounds called inactive have numbers as strong as hits
UCH37 DUB inh: inhibitors of human deubiquitinating enzyme UCH37; actives 0.33% (n = 330,000); purified proteasome/UCH37, Ub-AMC cleavage fluorescence; inhibition, % (concentration not given with the values); Q9Y5K5;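 active = mean of two replicates above 20%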;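 also: 0% = compound-free wells with enzyme and 100% = wells lacking proteasome; stock transfer was 100 nL into about 20 µL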
Target sequence (Q9Y5K5 whole entry, looked up): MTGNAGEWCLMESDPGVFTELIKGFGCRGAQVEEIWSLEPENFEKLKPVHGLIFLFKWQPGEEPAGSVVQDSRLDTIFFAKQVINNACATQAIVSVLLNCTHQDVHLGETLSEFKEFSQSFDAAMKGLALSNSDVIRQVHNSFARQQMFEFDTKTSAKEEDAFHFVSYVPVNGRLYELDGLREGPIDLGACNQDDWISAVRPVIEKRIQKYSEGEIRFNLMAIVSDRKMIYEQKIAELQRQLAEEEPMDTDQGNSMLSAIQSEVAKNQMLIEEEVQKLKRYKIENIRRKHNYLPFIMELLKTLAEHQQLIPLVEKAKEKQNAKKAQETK
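Material: human UCH37 enzyme supplied as purified proteasome complex / Amount: 0.15 nM proteasome as dispensed / Buffer or medium: pH 7.4 Tris-HCl (50 mM) with ovalbumin, ATP-MgCl2, DTT / Times: preincubation 30 min, reaction 25 min, room temperature / Technique: AMC fluorescence from Ub-AMC cleavage, excitation 355 nm, emission 460 nm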
Beta2AR agonist: agonists of human beta-2 adrenergic receptor inducing internalization; P07550; Am2.2-beta2AR cells, FAP receptor internalization, flow cytometry; reference of the scale not given here; response, % (concentration not given with the values); actives 0.43% (n = 340,000); AID 504454;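 active = response above a set limit, near 3 SD of response in nonfluorescent compounds, cut at about 42% in these data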;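 also: stock transfer was 100 nL into about 11 µL; a reference agonist was the positive control; negative values mostly stem from fluorescent compounds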
rRNA inh HTS OD600: recorded beside rRNA inh HTS, whose call it bears; OD600 change, %; measured here: OD600 growth;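 optical density of the mix in the first replicate; 0 = DMSO median and -100 = no signal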
rRNA inh HTS RFP: recorded beside rRNA inh HTS, whose call it bears; RFP signal change, %; measured here: RFP humanized mutant strains;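 first replicate; 0 = DMSO median and -100 = no signal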
The depositor's hits bear a star; i = inactive; . = no result given. An excerpt; rates above refer to the full screens.

The first 3 records, to show the layout:
item	smiles	FGF22 binding	E coli growth	rRNA inh HTS RFP	rRNA inh HTS	Beta2AR agonist	rRNA inh HTS OD600	UCH37 DUB inh	HNF4A DNA FP	ALR H2O2 inh
1	CCCCc1cc(C)c(S(=O)(=O)c2ccccc2C)c(=O)[nH]1	i	0.687	-0.8	8.1	-4.3	4.7	-1.0	0.6	-7.5
2	CCCOc1ccc(CC(=O)NCc2ccco2)cc1OC	.	0.692	.	.	-6.5	.	-2.2	1.5	.
3	CS(=O)(=O)Nc1nnc(Cc2ccccc2)s1	.	0.715	.	.	3.0	.	3.3	-2.2	-3.3

The whole of this part, repeating the preview:
item	smiles	FGF22 binding	E coli growth	rRNA inh HTS RFP	rRNA inh HTS	Beta2AR agonist	rRNA inh HTS OD600	UCH37 DUB inh	HNF4A DNA FP	ALR H2O2 inh
1	CCCCc1cc(C)c(S(=O)(=O)c2ccccc2C)c(=O)[nH]1	i	0.687	-0.8	8.1	-4.3	4.7	-1.0	0.6	-7.5
2	CCCOc1ccc(CC(=O)NCc2ccco2)cc1OC	.	0.692	.	.	-6.5	.	-2.2	1.5	.
3	CS(=O)(=O)Nc1nnc(Cc2ccccc2)s1	.	0.715	.	.	3.0	.	3.3	-2.2	-3.3
4	CN(C)C1C(=O)c2ccccc2C1=O	i	0.741	.	.	-2.8	.	6.4	-0.4	-7.8
5	COC(=O)CCCCCNc1ccc(C(=O)OC)cc1N	.	0.77	.	.	7.3	.	-1.9	1.2	41.1
6	Cc1cc(C)c2c(=O)[nH]c(SCC(=O)Nc3cccc(S(=O)(=O)N(C)C)c3)nc2n1	i	0.698	3.9	-6.6	1.9	-16.0	-2.4	-0.2	.
7	C=CCn1c(SCc2csc(C)n2)nc2sc3c(c2c1=O)CCCCC3	.	0.671	.	.	-16.0	.	4.6	0.3	-9.0
8	CC12CCC(=O)N1C(C(=O)Nc1ccc(SC(F)F)cc1)CS2 (stereo not drawn)	i	0.608	0.2	-0.9	2.2	-0.8	-1.6	-0.7	-3.5
9	CCCc1[nH]nc2c1C(CCC)C(C#N)=C(N)O2 (stereo not drawn)	.	0.704	.	.	3.7	.	-0.8	1.6	.
10	Cc1ccc(N(CCC#N)C(=O)COC(=O)c2cc(C)oc2C)cc1	i	0.664	2.9	1.3	1.6	4.6	-1.6	-1.0	-1.6
11	CN(CCCS(=O)(=O)[O-])c1ccc(/C=C/c2ccc3ccccc3[n+]2C)cc1	i	0.644	12.6	5.9	-10.1	7.0	3.4	-1.6	15.7
12	CC1(C)CC(=O)c2cnc(NC(=O)c3ccco3)nc2C1	.	0.747	.	.	-9.9	.	-1.9	-0.7	-2.3
13	COc1ccccc1N1C(=O)CCC1(C#N)c1ccc(Br)cc1 (stereo not drawn)	.	0.659	.	.	-5.4	.	2.4	-0.1	2.8
14	CCc1ccc(NC(=O)COc2cccc(-n3cnnn3)c2)cc1	i	0.65	-1.1	-2.3	-7.7	-2.0	0.1	-2.2	-2.6
15	CCC(=O)N1CCN(c2ccc(NC(=O)COc3ccccc3[N+](=O)[O-])cc2)CC1	i	0.684	-1.7	11.4	6.3	5.2	1.0	-2.5	-1.2
16	CCN1CCN(S(=O)(=O)c2ccc(Cl)c(C(=O)N(C)Cc3ccc(C(C)(C)C)cc3)c2)CC1	i	0.661	-15.9	-64.2	3.1	-77.8	2.6	-1.5	.
17	CCCC(=O)Nc1ccc(C(=O)COC(=O)C2CC2)cc1	i	0.694	-3.0	0.9	-1.4	9.0	1.1	2.7	9.0
18	COc1ccc(/C=C(\C#N)C(=O)OCC(=O)N2CC(C)OC(C)C2)cc1 (stereo not drawn)	i	0.655	-6.6	7.3	0.3	-3.3	14.6	1.3	2.7
19	CC1CN(C(=O)CSc2nnc(C3CCCCC3)n2N)CC(C)O1 (stereo not drawn)	i	0.674	-2.8	5.5	-1.1	7.0	2.0	-2.1	.
20	O=C(CN1CCN(c2cccc(Cl)c2)CC1)N1CCCC1	.	0.697	.	.	1.5	.	0.2	0.4	33.0
21	CCCCC1C2C(=O)N(c3ccccc3)C(=O)C2ON1c1ccccc1 (stereo not drawn)	i	0.672	1.5	8.8	-5.6	-1.3	7.0	5.0	.
22	Cc1ccc(S(=O)(=O)N(C(=O)c2ccncc2)c2ccc3oc4c(c3c2)CCCC4)cc1[N+](=O)[O-]	.	0.671	.	.	-0.7	.	0.9	-4.3	-3.1
23	O=c1cc(-c2ccccc2)nc(/C=C/c2ccccc2)[nH]1	.	0.728	-3.9	30.6	-10.1	4.7	0.2	-1.1	.
24	CCCN1CCN(CCCNC(=S)Nc2ccc(OC)cc2)CC1	.	0.694	.	.	-4.0	.	0.8	-3.6	-8.2
25	COc1cc(C2NC(=O)NC(C)=C2C(=O)OCC2CCCCC2)cc(Cl)c1O (stereo not drawn)	i	0.669	0.6	-21.6	11.0	-27.8	4.4	-4.8	16.2
26	Cc1cccn2c(=O)c(C(=O)NC3CCCCC3)c(O)nc12	i	0.713	-5.1	-5.3	0.3	-7.1	-39.5	4.3	-7.4
27	COc1cc2nnn(-c3ccncc3)c2cc1OC	i	.	-4.7	-4.0	.	-7.5	.	-1.9	.
28	O=C(NCC(c1ccco1)N1CCN(c2ccccc2F)CC1)OCc1ccccc1 (stereo not drawn)	i	0.663	-12.6	-9.6	4.3	-13.8	-0.1	0.3	-0.2
29	O=C(COC(=O)CCc1ccccc1)NC1CCS(=O)(=O)C1 (stereo not drawn)	i	0.658	0.0	6.6	-3.1	6.7	4.0	-4.2	-1.1
30	CC(C)Oc1ccc(C(=O)Nc2ccccc2N2CCOCC2)cc1	i	0.689	2.0	15.4	5.2	1.0	0.7	-2.8	1.6
31	c1ccc(Cc2c(-c3ccco3)nc3c4ccccc4ccn23)cc1	i	.	17.3	4.2	.	2.6	.	12.7	.
32	O=C(COC(=O)c1ccc(OC(F)F)cc1)NCCC1=CCCCC1	i	0.647	-4.3	1.8	6.0	-1.4	-0.6	1.7	0.9
33	N#Cc1ncc(C(F)(F)F)cc1Oc1cccnc1	.	0.687	3.5	17.9	0.3	26.6	1.0	2.4	1.6
34	O=C(c1ccc(Cl)c(NC2=NC3CS(=O)(=O)CC3S2)c1)N1CCN(c2ccc(F)cc2)CC1 (stereo not drawn)	i	0.653	2.9	3.5	8.1	8.6	0.5	0.3	44.0
35	C#CCNC(=O)/C=C/c1ccc(C)cc1	i	.	-11.4	-5.5	6.7	-0.9	1.4	-3.7	.
36	COCCn1cc(C(=S)N2CCCCC2)c2ccccc21	i	0.645	-0.9	-6.6	6.0	-0.8	2.1	1.1	8.6
37	N/C(=N\OC(=O)c1ccoc1)c1ccc(Br)cc1	i	0.716	0.6	1.6	2.2	-1.1	-0.7	1.6	-0.3
38	CCCCn1c(N)c(N(CC(C)C)C(=O)C2CCN(C(=O)c3ccc(Cl)cc3)CC2)c(=O)[nH]c1=O	i	0.709	-0.1	0.9	2.6	0.5	4.3	-0.8	0.0
39	Cc1nc(=O)c(-c2ccccc2)c(C)n1-c1ccccc1C(=O)O	.	0.704	.	.	2.0	.	1.5	-5.7	-8.0
40	O=C(CSc1nc2[nH]c(=O)[nH]c(=O)c2s1)Nc1cccc(F)c1	i	0.63	-2.0	6.7	-5.0	-0.9	15.2	1.8	98.7*
41	CC(C)c1ccc2c(c1)C1(NN=C(c3ccccc3)S1)C(=O)N2 (stereo not drawn)	.	0.701	.	.	5.1	.	5.0	-2.2	-6.1
42	CCN(CC(=O)NCCc1ccccc1)S(=O)(=O)c1ccccc1	.	0.673	0.6	-0.1	-0.2	2.5	-0.4	-0.7	-3.8
43	COc1cc(C(=O)NC(=S)N(CCC#N)Cc2cccnc2)cc(OC)c1OC	i	0.725	1.2	-3.3	9.0	6.6	4.7	0.8	.
44	Cc1[nH]c(-c2ccc(F)cc2)cc1C(=O)N1CCN(c2ccccc2)CC1	i	0.642	8.3	-5.5	-12.7	-2.5	0.9	2.2	16.2
45	COCC(C)n1c(C)cc(C(=O)COC(=O)CCc2nc3ccccc3c(=O)[nH]2)c1C (stereo not drawn)	.	0.715	-2.2	-17.4	6.9	-12.8	-1.9	2.9	-1.4
46	CCCCC(=O)Nc1c(O)c2ccccc2[nH]c1=O	.	0.667	.	.	-3.0	.	-0.7	-0.3	0.9
47	N#Cc1ccc(NC(=S)N2CCC3CC2c2cc(-c4ccc5c(c4)OCO5)ccc23)cc1 (stereo not drawn)	i	.	-1.3	19.6	.	8.9	.	3.0	.
48	O=C(Nc1cccnc1)C1COc2ccccc2O1 (stereo not drawn)	.	0.723	.	.	-5.8	.	-3.3	2.9	-3.3
49	COC(=O)c1ccc(C(=O)OC)c(NC(=O)CSCc2ccccc2Br)c1	.	0.71	.	.	0.8	.	2.2	-2.7	-3.6
50	CC(C)CCn1c(=S)[nH]c2ncccc2c1=O	.	0.697	.	.	-12.1	.	2.1	-0.9	.
51	C=CCc1cc(/C=N/n2cnnc2)cc(OCC)c1O	.	.	.	.	-9.2	.	.	1.4	48.5
52	Cc1cccc(OC(=O)c2sc(Cl)nc2C)c1	.	0.693	.	.	2.1	.	1.4	-1.6	4.7
53	Cc1cc(SCC(=O)c2ccc(O)c(O)c2)nc2ccccc12	i	0.71	-16.2	-33.3	3.2	-41.2	5.4	-12.1	99.6*
54	CC(=O)/C(=N/Nc1cccc(Cl)c1)Sc1nnc(C(O)c2ccccc2)n1-c1ccccc1 (stereo not drawn)	i	.	1.1	4.3	-5.4	1.9	.	1.0	16.9
55	O=C(Nc1ccc2cn[nH]c2c1)c1c(Cl)cccc1Cl	.	0.635	.	.	6.5	.	2.3	-3.0	-10.8

Six entries from above, ordered by the number in Beta2AR agonist, falling:
item	smiles	FGF22 binding	E coli growth	rRNA inh HTS RFP	rRNA inh HTS	Beta2AR agonist	rRNA inh HTS OD600	UCH37 DUB inh	HNF4A DNA FP	ALR H2O2 inh
55	O=C(Nc1ccc2cn[nH]c2c1)c1c(Cl)cccc1Cl	.	0.635	.	.	6.5	.	2.3	-3.0	-10.8
53	Cc1cc(SCC(=O)c2ccc(O)c(O)c2)nc2ccccc12	i	0.71	-16.2	-33.3	3.2	-41.2	5.4	-12.1	99.6*
46	CCCCC(=O)Nc1c(O)c2ccccc2[nH]c1=O	.	0.667	.	.	-3.0	.	-0.7	-0.3	0.9
48	O=C(Nc1cccnc1)C1COc2ccccc2O1 (stereo not drawn)	.	0.723	.	.	-5.8	.	-3.3	2.9	-3.3
51	C=CCc1cc(/C=N/n2cnnc2)cc(OCC)c1O	.	.	.	.	-9.2	.	.	1.4	48.5
50	CC(C)CCn1c(=S)[nH]c2ncccc2c1=O	.	0.697	.	.	-12.1	.	2.1	-0.9	.

High-throughput results (PubChem)
